# HCMV NEC inh = inhibitors of HCMV UL50-UL53 nuclear egress complex interaction. AID 1918969. inhibition, % (test concentration not listed). HTRF UL50-UL53 interaction, normalized percent inhibition. 190,000 compounds, 0.15% hits;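 active means both replicates at 50% or more, plus weaker picks with an unusually low signal ratio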;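 further: stock transfer was 100 nL into about 20 µL; 0% = negative control wells and 100% = wells with untagged competitor protein; inactives centre near -12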
# GIV Gai3 FP = inhibitors of GIV GBA-motif binding to rat Galpha-i3. percent of control (FP), % (concentration not given with the values). Galpha-i3/FITC-GIV peptide fluorescence polarization, 90 min; hits give low values; scaled: aluminum fluoride 0%, vehicle 100%. 210,000 compounds, 0.42% hits. P08753. AID 1224905;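 active means replicate mean at 85% of control or lower, very high polarization wells dropped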;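 further: wells of about 15 µL received 100 nL stock; the first replicate is given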
# Target sequence (P08753 whole entry, looked up): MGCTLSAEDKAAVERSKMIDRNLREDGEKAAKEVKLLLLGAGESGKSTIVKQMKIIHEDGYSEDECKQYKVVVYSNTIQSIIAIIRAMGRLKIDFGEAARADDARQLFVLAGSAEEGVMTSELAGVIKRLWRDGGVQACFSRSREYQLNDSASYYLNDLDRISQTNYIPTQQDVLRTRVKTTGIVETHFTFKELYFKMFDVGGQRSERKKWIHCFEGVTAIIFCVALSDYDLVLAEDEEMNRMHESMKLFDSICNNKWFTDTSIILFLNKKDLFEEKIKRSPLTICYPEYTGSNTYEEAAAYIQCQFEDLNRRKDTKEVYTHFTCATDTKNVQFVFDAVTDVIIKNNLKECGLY
# Sa growth inh = inhibitors of Staphylococcus aureus growth at 42 °C; 170,000 compounds, 0.53% hits; relative growth, % (concentration not given with the values); S. aureus RN4220 growth, OD600, 20 h; hits give low values;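 active means growth at 42 °C up to 50% and 20 or more points under that at 30 °C, or under 10% at both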;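 further: 300 nL library stock went into each well; scaled to the means of positive and negative controls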
# Sa growth inh second temp = also measured in Sa growth inh; calls as there; relative growth, %; measured here: growth at 30 °C;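 optical density after 20 h as mean of two plates; 100% = untreated growth and lower means inhibition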
# * = called active by the depositor; . = not tested or not shown; & = joins results of further samples. Compounds were not picked by outcome; 0.83% or so of the library scored in one or more.
# Sample of the layout (6 entries):
SMILES,HCMV NEC inh,GIV Gai3 FP,Sa growth inh,Sa growth inh second temp
Cc1c2cnn(CC(=O)N3CCCC3)c(=O)c2c(C)n1Cc1ccccc1,-4,117,114,94
CC1CCc2ccccc2N1C(=O)c1cccs1 (stereo not given),2,.,82,90
Cc1cccc(CNC(=O)CN2C(=O)CCCc3ccccc32)c1,.,103,101,96
Cc1nn(CCCC(=O)N2CCCC2)c(=O)c2c1sc1ccccc12,.,101,112,93
CC(=O)N1N=C(c2cc3ccccc3o2)OC1c1c(C)[nH]c(=O)[nH]c1=O (stereo not given),-30,102,101,90
CNC(=O)Cn1ncc2c3ccccc3n(C)c2c1=O,5,102,90,88

# The whole of this part, from the start:
SMILES,HCMV NEC inh,GIV Gai3 FP,Sa growth inh,Sa growth inh second temp
Cc1c2cnn(CC(=O)N3CCCC3)c(=O)c2c(C)n1Cc1ccccc1,-4,117,114,94
CC1CCc2ccccc2N1C(=O)c1cccs1 (stereo not given),2,.,82,90
Cc1cccc(CNC(=O)CN2C(=O)CCCc3ccccc32)c1,.,103,101,96
Cc1nn(CCCC(=O)N2CCCC2)c(=O)c2c1sc1ccccc12,.,101,112,93
CC(=O)N1N=C(c2cc3ccccc3o2)OC1c1c(C)[nH]c(=O)[nH]c1=O (stereo not given),-30,102,101,90
CNC(=O)Cn1ncc2c3ccccc3n(C)c2c1=O,5,102,90,88
O=C(Cn1c(=O)nc(-c2ccccc2)c2ccccc21)NCc1ccc(Cl)cc1,.,101,85,91
COc1ccc(-c2nc(C)c(CCNC(=O)c3cccc(C(F)(F)F)c3)s2)cc1,.,100,92,79
c1ccc(CN2CCN(c3nc(N4CCOCC4)c4ccccc4n3)CC2)cc1,-11,101,134,84
Cc1nnsc1C(=O)NC1Cc2ccccc2C1,-1,106,94,92
CC1CCN(C(=S)NCCc2ccccc2)CC1,5,.,119,92
COc1ccccc1N=C=S,-18,.,106,87
CN(C)C(=O)N1CCN(S(=O)(=O)c2ccccc2)CC1,-1,104,67,83
NC(=O)c1ccccc1NC(=O)Cc1ccccc1,-19,.,91,86
CCCN(Cc1cc2cccc(C)c2[nH]c1=O)S(=O)(=O)c1ccccc1,-10,101,92,85
O=C(Nc1ccccc1-c1nc2ccccc2[nH]1)c1ccc(S(=O)(=O)N2CCc3ccccc32)cc1,-5,104,.,.
Cc1ccc(C(C(=O)NCc2ccccc2)N(Cc2ccco2)C(=O)Cn2nnc3ccccc32)cc1 (stereo not given),.,102,92,88
C=CCn1c(=O)/c(=C2/Sc3ccccc3N2CC)s/c1=C1/C(=O)NN=C1C,15,186,30,33
Cn1c(C(=O)NCC2(c3ccccc3)CCCC2)cc2c(=O)n(C)c3ccccc3c21,.,109,90,97
CN(CCCNC(=O)c1cccc(-n2nnc3cccnc32)c1)Cc1ccccc1,-37,107,.,.
CC(Sc1nnnn1C)C(=O)Nc1ccccc1 (stereo not given),-18,.,108,96
CS(=O)(=O)c1ccc(Cl)c(NC(=O)c2cncn2-c2ccc(F)cc2)c1,2,.,103,91
N=C(N)Cc1c(Cl)cccc1Cl,4,105,114,112
COc1cccc(C(=O)Nc2nc(-c3nnn(-c4cccc(Cl)c4C)c3C)ns2)c1,.,99,97,86
COc1ccc(S(=O)(=O)Cc2ccc(C(=O)N3CCOCC3)o2)cc1,.,102,88,91
O=c1oc2cc(O)c(Cl)cc2c2c1CCC2,-66,99,.,.
c1ccc(CN2CCC(NCc3nnc(-c4ccccc4)o3)CC2)cc1,-40,.,80,86
O=C(O)c1ccc(Br)cn1,-1,103,95,95
COc1ccc(N2C(=NC(C)=O)SC3CS(=O)(=O)CC32)cc1 (stereo not given),.,101,104,91
O=C(COC(=O)Cc1ccc(S(=O)(=O)N2CCOCC2)s1)Nc1ccccc1,1,.,98,83
CCCc1nnc(NC(=O)CSc2nc(C)cc(C)n2)s1,-12,100,94,84
CCCCN1COc2ccc3c(C)cc(=O)oc3c2C1,.,105,87,91
Cc1cc(C)n(-c2ccc(N3CCC(C)CC3)nn2)n1,-4,100,104,94
CN(C)/C=C/C=C1\N=C(c2ccccc2)OC1=O,-78,200,101,87
CCOC(=O)c1nc2onc(C)c2c(=O)n1CC(=O)c1cccc(OC)c1,-29,95,.,.
O=C(CCc1nc2sc3c(c2c(=O)[nH]1)CCCCC3)NC1CCCCC1,-20,99,.,.
Cc1[nH]c2ccccc2c1C(=O)CSC(=S)N(C)C1CCCCC1,.,106,113,80
CCOc1cc(C#N)c(NC(=O)c2ccc(OC)c(S(=O)(=O)N3CCC(C)CC3)c2)cc1OCC,7,111,86,98
CCSCCOC(=O)C1=C(C)NC2=C(C(=O)CC(c3ccc(OC)cc3)C2)C1c1cccc(O)c1 (stereo not given),-9,107,.,.
Cc1cc(NC(=O)C2CC=CCC2C(=O)O)no1 (stereo not given),-17,99,94,89
O=C(N/C(=C/C=C/c1ccccc1)C(=O)N1CCCCC1)c1ccccc1,-24,.,64,62
S=C1NCCN1Cc1ccccc1,5,103,109,96
O=C(Nc1nc2ccc(Br)cc2s1)c1c(O)c2ccccc2[nH]c1=O,-4,105,.,.
COc1cccc2cc(C(=O)NC(C)=O)c(=Nc3ccc(Cl)cc3Cl)oc12,-30,105,.,.
CCOC(=O)N1CCN(CC2=CCC3CC2C3(C)C)CC1 (stereo not given),7,105,98,103

# Filtered by structure, the compounds so far with a furan ring, fused or not (3)
SMILES,HCMV NEC inh,GIV Gai3 FP,Sa growth inh,Sa growth inh second temp
CC(=O)N1N=C(c2cc3ccccc3o2)OC1c1c(C)[nH]c(=O)[nH]c1=O (stereo not given),-30,102,101,90
Cc1ccc(C(C(=O)NCc2ccccc2)N(Cc2ccco2)C(=O)Cn2nnc3ccccc32)cc1 (stereo not given),.,102,92,88
COc1ccc(S(=O)(=O)Cc2ccc(C(=O)N3CCOCC3)o2)cc1,.,102,88,91

# Other records
SMILES,HCMV NEC inh,GIV Gai3 FP,Sa growth inh,Sa growth inh second temp
Cc1ccc2c(C(=O)CNc3nccs3)c(C)[nH]c2c1,-7,102,102,81
C/C(=N/O)c1ccc(N)cc1,6,96,97,102
CCOC(=O)C1=C(C)NC(SCc2cc(=O)[nH][nH]2)=C(C#N)C1c1cccs1 (stereo not given),-12,106,111,86
CC(C)(C)C1CCc2onc(C(=O)Nc3sc4c(c3C(N)=O)CCCC4)c2C1 (stereo not given),7,100,97,86
Cc1cc(C)c2c(CC(=O)Oc3ccc(Cl)cc3)coc2c1,.,105,93,93
N#Cc1ccc(-c2ccncn2)cc1,-12,102,96,90
COc1ccc(CNC(=O)C2(C)Cn3nc(C)cc3C(=O)N2c2ccc(NC(C)=O)cc2)cc1 (stereo not given),2,100,.,.
CN(C(=O)CSc1ccc(F)cc1)C1(C#N)CCCCC1,-30,.,76,91
CCOC(=O)C1=C(Nc2ccccc2)OCC1=O,-15,.,102,69
Cc1ccc(-n2nc3ccc(NC(=O)c4cc5ccccc5o4)cc3n2)cc1,-51,109,103,88
CCc1cc2c(N3CCN(Cc4nc5ccccc5[nH]4)CC3)ncnc2s1,3,104,.,.
COc1ccc(N2CC(NC(=O)/C=C\c3ccc4c(c3)OCO4)CC2=O)cc1 (stereo not given),.,96,109,91
Cc1oc(-c2cccs2)nc1CSc1nc2ccncc2[nH]1,.,106,112,71
Cc1nn(CC(=O)N2CCC(C)CC2)c(=O)c2cc3sccc3n12,-37&-44,105&100,124,86
O=c1c2c3n(nnc-2nn1-c1ccccc1)CCC3,-81,.,90,93
O=C(c1cccc(N2C(=O)C3CC=CCC3C2=O)c1)N1CCc2ccccc2C1 (stereo not given),-12,103,112,88
COc1ccc(OC)c(NC(=O)N2CCN(CC(=O)c3c(C)n(C)c4ccccc34)CC2)c1,-16,102,.,.
CCOC(=O)CSc1nc2sc3c(c2c(=O)n1-c1ccc(OC)cc1)CC(C(C)C)OC3 (stereo not given),-29,106,113,78
CCOC(=O)c1ccc(-n2c(C)cc(/C=C3\C(=O)NC(=S)N(c4ccccc4)C3=O)c2C)cc1,-20,106,.,.
Cc1ccc(CNC(=O)c2cnn3c(C)c(Cc4c(F)cccc4Cl)c(C)nc23)cc1,.,99,74,83
CCCN(CCC)S(=O)(=O)c1ccc(C(=O)Nc2ccccc2)cc1,0,.,75,93
O=C(Nc1nc2ccccc2c(=O)s1)c1ccccc1,-14,98,88,87
COc1ccccc1C(=O)Nc1cccc(C(=O)OCc2cc(=O)n3nc(C4CC4)sc3n2)c1,.,107,118,89
O=C(Nc1ccc(F)c(Cl)c1)C1CCN(S(=O)(=O)c2ccc3[nH]c(=O)ccc3c2)CC1,.,105,138,83
O=C(COc1ccccc1-c1nc(-c2ccccc2)no1)NCC1CCCO1 (stereo not given),29,108,.,.
Cc1ccc(COC(=O)c2ccc(-c3nnn(Cc4ccc(C)cc4)n3)cc2)cc1,-9,100,107,93
CCCN1CNC(=S)N(c2cc(C)ccc2C)C1,.,106,105,92
CCCCNC(=O)c1ncn2c1C(=O)N(CCC)C(C)(C(=O)NCCC(C)C)C2 (stereo not given),-22,105,.,.
Cc1cc(C)cc(C(=O)Nc2nnc3n2CCS3)c1,.,99,87,84
Cc1nc(NC(=O)c2cc(C(C)C)n(C3CCS(=O)(=O)C3)n2)sc1C (stereo not given),3,99,.,.
Brc1cccc(-c2nnn3c2nc(NC2CCCCC2)c2ccccc23)c1,-35,105,103,87
Fc1cnc(N2CCc3ccccc32)nc1N1CCc2ccccc21,.,103,108,90
COc1ccccc1NC(=O)COc1cccc(-c2nc(-c3ccccc3)no2)c1,-1,111,.,.
CC(C)OP(=O)(c1ccccc1)c1ccccc1,-3,98,110,102
CCCN(c1ccccc1C(=O)O)S(=O)(=O)c1ccc2c(c1)n(C)c(=O)n2C,.,94,83,90
CC1=C(C(=O)Nc2ccc(Br)cn2)C(c2ccccc2C)C2=C(CC(C)(C)CC2=O)N1 (stereo not given),3,106,.,.
Cc1ccc(CSCCC(=O)NC2CCCC(C)C2C)cc1 (stereo not given),.,105,122,81
CCCCCSc1nnc2c(n1)[nH]c1c(C)cccc12,-5,107,102,87
C[C@]12C=CC(=O)C=C1CC[C@@H]1C2=CC[C@]2(C)[C@@H](C(=O)CN3CCN(c4cc(N5CCCC5)nc(N5CCCC5)n4)CC3)CC[C@@H]12,-14&-14&-8,103,.,.
COc1ccc(OC)c(NC(=O)c2cnn(-c3ccc(C)cc3)c2C2CCNCC2)c1,.,100,84,102
COC(=O)c1c(C)oc2ccc(N(C(C)=O)S(=O)(=O)c3ccc(OC)cc3)cc12,-4,.,94,85
CC(C)OCCCNC(=O)CN1C(=O)COc2ccc(S(=O)(=O)N3CCCCCC3)cc21,.,102,125,88

# Full records, quoted from the list. Values in the order: HCMV NEC inh	GIV Gai3 FP	Sa growth inh	Sa growth inh second temp
# Listed for CCCCCSc1nnc2c(n1)[nH]c1c(C)cccc12 → -5	107	102	87
# Listed for CC(C)OCCCNC(=O)CN1C(=O)COc2ccc(S(=O)(=O)N3CCCCCC3)cc21 → .	102	125	88
# Listed for COC(=O)c1c(C)oc2ccc(N(C(C)=O)S(=O)(=O)c3ccc(OC)cc3)cc12 → -4	.	94	85
# Listed for Fc1cnc(N2CCc3ccccc32)nc1N1CCc2ccccc21 → .	103	108	90
# Listed for CC(C)OP(=O)(c1ccccc1)c1ccccc1 → -3	98	110	102

# Bioassay records (PubChem)
